Screening results from PubChem BioAssay.
CapD inh – Bacillus anthracis CapD inhibitors, primary screen, biochemical, fluorescence intensity; purified CapD enzyme, fluorescence intensity read-out; active compounds read low; some hits fall short of the stated cut; z-score (test concentration not listed); 0.23% of 140,000 active; CapD gamma-glutamyltranspeptidase (Bacillus anthracis Ames Ancestor);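 active means z-score under -4 in either of two replicates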;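 further: stock transfer was 100 nL into about 40 µL; score is relative to mean and spread of the plate; one replicate is shown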
AID504770 – growth inhibition of E. coli YBA685, primary screen, V. cholerae RctB inhibitors | E. coli YBA685 rctB-dependent plasmid, OD600 growth, 3 h; active compounds read low | z-score (test concentration not listed) | 0.27% of 130,000 active | AID 504770, 2011;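 active means z-score under -2 on both plates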;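 further: wells of about 30 µL received 100 nL stock; score is relative to mean and SD of the test wells; the first replicate is given; strong numbers were not always called active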
Numbers without * were called inactive; i = inactive; . = not tested or not shown; & = joins results of further samples.

Order of results: CapD inh	AID504770
- CC1=CC(c2ccccc2)NC(=S)N1 (centres undefined)
    .	-0.05
- Cc1ccnc(NCc2ccc(N(C)C)cc2)c1
    -0.6	-3.1
- COCn1nc(-c2ccc(Cl)cc2Cl)oc1=S
    -0.07	0.4
- CCN(CC(=O)N1CCCCC1)S(=O)(=O)c1ccccc1
    -0.12	-0.5
- COc1ccc(/C=c2/sc3nc(-c4ccc(Cl)cc4)nn3c2=O)cc1
    -0.09	.
- Cc1ccc(S(=O)(=O)N(Cc2ccccc2)C(C#N)c2ccc3c(c2)OCO3)cc1 (centres undefined)
    0.1	0.3
- CCOC(=O)C1=C(Cn2ccnc2)NC(=O)NC1c1ccc(Cl)cc1 (centres undefined)
    0.91	0.75
- O=C(Oc1nsnc1N1CCOCC1)N1CCCCC1
    0.11	0.75
- CCCC1/C(=N\O)CC(c2ccco2)NC1c1ccco1 (centres undefined)
    -0.77	0.25
- O=C1OCCN1P(=O)(c1ccccc1)c1ccccc1
    0.44	1.2
- CC1(C(=O)NC2CCCCC2)CCC(=O)N1Cc1cccnc1 (centres undefined)
    -0.23	1.3
- O=C1CC(C(=O)N2CCCC2)CN1CCc1ccc(F)cc1 (centres undefined)
    .	1.8
- CSc1ccccc1NC(=O)c1nn2c(c1Br)NC(c1cccs1)CC2C(F)(F)F (centres undefined)
    -0.17	.
- Cc1ccc(S(=O)(=O)NCCc2ccncc2)cc1
    0.21	.
- COC(=O)CC(c1ccc(Br)cc1)n1cccc1 (centres undefined)
    -0.43	-0.45
- Cc1noc(C)c1COc1cccc(C(=O)NC(C)C2CC3CCC2C3)c1 (centres undefined)
    .	-0.1
- COc1ccc(-n2c(-c3ccco3)nc3c(cnn3-c3ccc(C)c(C)c3)c2=O)cc1Cl
    0.33	0.5
- O=C1NC2=C(C(=O)OC2)C(c2ccccc2)N1 (centres undefined)
    -0.85	0.45
- NS(=O)(=O)c1ccc(Oc2ccccc2)cc1
    .	0.05
- COc1ccc(-c2noc(CC(=O)N3CC(C)CC(C)C3)n2)cc1 (centres undefined)
    -0.14	-2.1

An excerpt of these results, as labelled records:
> NS(=O)(=O)c1ccc(Oc2ccccc2)cc1
  CapD inh: .
  AID504770: 0.05
> Cc1noc(C)c1COc1cccc(C(=O)NC(C)C2CC3CCC2C3)c1 (centres undefined)
  CapD inh: .
  AID504770: -0.1
> COC(=O)CC(c1ccc(Br)cc1)n1cccc1 (centres undefined)
  CapD inh: -0.43
  AID504770: -0.45

(list continues)
Order of results: CapD inh	AID504770
- CCOC(=O)Cn1cc(C)c(=O)[nH]c1=O
    -1.1	0.25
- CCCCN(CC)c1ncnc2ccc(C)cc12
    0.34	-0.75
- CNC(=O)C(C)SCc1ccccc1 (centres undefined)
    .	-1.1
- N#Cc1nc(-c2ccc(C(F)(F)F)cc2)oc1N
    102	0.7
- NS(=O)(=O)c1ccc(CCN=Cc2ccccc2O)cc1
    .	0.2
- CCOC(=O)c1c(NC(=O)C(C)Sc2nnc(CNC(=O)c3cccc(F)c3)n2Cc2ccccc2)sc2c1CCC2 (centres undefined)
    -0.51	.
- O=S(=O)(Nc1ccccc1N1CCOCC1)c1ccccc1
    0.6	-0.3
- O=C(Cc1ccc([N+](=O)[O-])cc1)N1CCCc2ccccc21
    -0.3	.
- CCC(CC)c1nnc(NS(=O)(=O)c2ccc(C)cc2)s1
    0.05	0.4
- Cc1ccc(C(=O)Nc2cccn(Cc3c(Cl)cccc3Cl)c2=O)cc1
    0.33	.
- CCOC(=O)c1c(C=O)oc2c(C)cc(OC(=O)/C=C/c3ccccc3)c(Br)c12
    0.15	.
- Cc1ccc(CCCC(=O)O)cc1
    0.14	-0.55
- O=C(CCN1C(=O)/C(=C/c2ccccc2)SC1=S)OC1CCCCC1
    -0.14	-1.2
- COc1ccc(S(=O)(=O)Nc2cc(C(=O)Nc3ccc(F)c(F)c3)ccc2N2CC3CC(C2)c2cccc(=O)n2C3)cc1 (centres undefined)
    0.49	.
- O=C(O)CN1C(=O)Cc2ccccc2C1=O
    .	0.25
- COc1ccc(CNC2CCCCC2)cc1OC
    0.22	-0.2
- O=C(c1cccn2c(=O)c3cc(Br)ccc3nc12)N1CCC2(CC1)OCCO2
    -0.03	-0.3
- Cc1cc(C)c2c(N)c(C(=O)Nc3nnc(-c4cccs4)s3)sc2n1
    7.6	-1.1
- Nc1cnn(C2OC(CO)C(O)C2O)c(=O)n1 (centres undefined)
    0.18	-0.15
- COc1ccc2c(c1)nc1n2CN(CC2CCCO2)CN1Cc1ccccc1 (centres undefined)
    -0.29	-0.35
- O=C(CC1SC(=NCc2ccccc2)NC1=O)Nc1ccccc1F (centres undefined)
    .	-0.05
- O=C(Nc1ncnc2oc(-c3ccccc3)c(-c3ccccc3)c12)c1ccccc1
    9.5	-0.5
- CNC(=O)c1ccc(OCc2ccccc2)c(OC)c1
    -0.12	-0.75
- COc1ccc(SCc2cc3c(F)c(F)c(F)c(F)c3o2)cc1
    0.3	0.15
- O=C(/C=C/c1ccc(Br)cc1)NCCCn1ccnc1
    0.095	-0.45
- CCOC(=O)N1CCN(C(=O)COc2ccc(S(=O)(=O)NCC(C)C)cc2C)CC1
    -0.06	0.05
- CSc1nnc(-c2ccccc2Cl)o1
    i	-0.5&1.7
- CN(CC(=O)NC1CCCC1)S(=O)(=O)c1ccc2c(c1)c(=O)n(C)c(=O)n2C
    1.7	-0.15
- Cc1ccc(CCNC(=O)c2coc3nc4ccccc4nc23)cc1
    0.28	0.15
- CC1Cc2ccccc2N1C(=O)CSc1nc2ccccc2[nH]1 (centres undefined)
    -0.57	-0.55

Overlap with the part before: 7 entries, followed by the next part.
Order of results: CapD inh	AID504770
- COc1ccc(SCc2cc3c(F)c(F)c(F)c(F)c3o2)cc1
    0.3	0.15
- O=C(/C=C/c1ccc(Br)cc1)NCCCn1ccnc1
    0.095	-0.45
- CCOC(=O)N1CCN(C(=O)COc2ccc(S(=O)(=O)NCC(C)C)cc2C)CC1
    -0.06	0.05
- CSc1nnc(-c2ccccc2Cl)o1
    i	-0.5&1.7
- CN(CC(=O)NC1CCCC1)S(=O)(=O)c1ccc2c(c1)c(=O)n(C)c(=O)n2C
    1.7	-0.15
- Cc1ccc(CCNC(=O)c2coc3nc4ccccc4nc23)cc1
    0.28	0.15
- CC1Cc2ccccc2N1C(=O)CSc1nc2ccccc2[nH]1 (centres undefined)
    -0.57	-0.55
- CC(C)COc1ccc(N)cc1OCC(C)C
    0.97	1
- COc1ccc2c(c1O)-c1c(OC)c(OC)cc3c1[C@H](C2)N(C)CC3
    -0.18	-0.4
- COc1ccc(-c2nn(-c3ccccc3)cc2/C=C2/NC(=S)N(c3ccccc3)C2=O)cc1OC
    0.01	.
- O=C(CC(C(=O)c1ccccc1)c1cccs1)c1ccc(Cl)cc1 (centres undefined)
    -0.78	0
- O=C(O)CC1=C(c2ccc(Cl)cc2)CCC1=O
    0.51	-0.1
- Cc1csc(NC(=O)CCN2C(=O)/C(=C/c3ccc4c(c3)OCO4)SC2=S)n1
    -0.43	.
- CCOC(=O)c1c(C)nn(-c2ccc(N)cc2)c1C
    0.77	.
- CCS(=O)(=O)c1ccc2oc(=O)c(/C=C(\O)c3oc(C)nc3C)nc2c1
    -0.51	0.55
- Nn1c(SCC(=O)NC2CCCCC2)nnc1-c1ccc(Cl)cc1
    -0.015	0.15
- O=S(=O)(NC1Cc2ccccc2C1)c1ccccc1
    -0.16	.
- CCOC(=O)C1=C(N)n2c(s/c(=C\c3cccc([N+](=O)[O-])c3)c2=O)=C(C(=O)OCC)C1c1cccc([N+](=O)[O-])c1 (centres undefined)
    -0.1	.
- NC(=O)CSc1nc(-c2ccccc2)nc2c1CCCC2
    .	0.65
- Brc1ccc(-c2nnc3n2CCCCC3)cc1
    -0.21	.
- COc1ccccc1N(CC(O)Cn1ccnc1C)S(=O)(=O)c1ccc(C)cc1 (centres undefined)
    .	0.15
- Cc1ccc(C)c(-c2csc(NC(=O)CCCc3ccccc3)c2C(N)=O)c1
    -0.27	2.4
- CCOC(=O)C1=C(N)OC2=C(C(=O)CC(c3ccccc3)C2)C1c1ccsc1 (centres undefined)
    -0.45	.
- CCCc1nnc(NC(=O)C(C)N2C(=O)C3C4C=CC(C4)C3C2=O)s1 (centres undefined)
    -0.36	-0.3
- CCC(Oc1ccc2c(c1)C(=O)CC(C)(C)O2)C(=O)NCCN1CCCCCC1 (centres undefined)
    47	-0.8
- COc1cccc(C(c2sc3ncnn3c2O)N2CCC(C)CC2)c1 (centres undefined)
    .	-0.4
- CCN(CC)P(=O)(Oc1cccc(C)c1)N(CC)CC
    -0.79	2.5

(listing goes on)
canonical_smiles | CapD inh | AID504770
Cc1cccc(-c2nc3ccccc3c(=O)n2OC(=O)c2ccc(C)c(C)c2)c1 | -0.5 | -0.95
CCN(C(=O)Cc1c[nH]c2ccccc12)C1(C(=O)Nc2cccc(C)c2)CCCCC1 | -0.43 | .
CCN1CCN(C(=O)c2ccc(C#N)cc2)CC1 | . | -0.7
Brc1ccccc1C=Nc1cccc2cnccc12 | -0.91 | 2.1
CCOc1ccc(-n2cnnn2)cc1S(=O)(=O)NCc1ccccc1 | 0.22 | -0.15
CC(Oc1ccc(C(C)(C)C)cc1)C(=O)N1CCN(Cc2ccc3c(c2)OCO3)CC1 (centres undefined) | 0.05 | 2.2
CC(C)N(C(=O)Cn1nnc2c(cnn2-c2ccccc2)c1=O)C(C)C | . | 1.1
c1csc(C2=Nn3c(Cn4nnc5ccccc54)nnc3SC2)c1 | -2.2 | 0.6
CCOC(=O)c1ccc(OC(=O)c2ccc(Cl)cc2Cl)cc1 | 0.27 | -0.6
OC(COc1ccc(-c2ccccc2)cc1)CN1CCOCC1 (centres undefined) | . | -0.3
COc1cccc(C2NC(C(=O)O)C3C(=O)N(c4cccc(C(=O)O)c4)C(=O)C23)c1O (centres undefined) | -0.43 | 0.1
CCc1nnc(NS(=O)(=O)c2ccc(N)cc2)s1 | -0.41 | -0.75
Nc1ccc(Oc2ccc(C(F)(F)F)cc2)nc1 | 3.9 | -0.9
CC(=O)C1=NN(c2ccc(C)cc2)C(c2c[nH]c3ccccc23)N1c1ccc(F)cc1 (centres undefined) | -0.27 | .
CCCCCCCCCCCCCO | -0.11 | .
COC(=O)c1ccc([N+](=O)[O-])c(CS(=O)(=O)c2ccc(Cl)cc2)c1 | 0.33 | .
CC(=O)OC[C@H]1O[C@@H](n2cnc3c(=O)[nH]c(N)nc32)[C@H](OC(C)=O)[C@@H]1OC(C)=O | 0.1 | -0.6
COc1ccc(S(=O)(=O)N2CCc3ccccc3C2C(=O)O)cc1 (centres undefined) | -0.56 | 1.6
C=CCn1c(SCc2cc(=O)[nH][nH]2)nc2sc(CC)cc2c1=O | . | -0.4
CCOc1ccccc1NC(=O)c1ccc(Br)cc1F | 0.61 | 1.1
CCSc1nnc(NC(=O)c2cccc(C(F)(F)F)c2)s1 | i | -0.65
Cn1c(CC(=O)Nc2ccc(F)cc2)c(Sc2ccccc2)c2ccccc21 | 0.26 | .
COc1ccccc1-n1c(SC(C)C(N)=O)nc2ccccc2c1=O (centres undefined) | . | 1.6
CN(NC(=O)c1cccc(C(F)(F)F)c1)c1c(C#N)c(C(F)(F)F)nn1C | 0.08 | .
COCCN(Cc1nc2ccccc2c(=O)[nH]1)C(=O)C1CCCN1C(=O)c1cccs1 (centres undefined) | . | -0.75
O=C1/C(=C/c2ccc(-c3ccc(Br)cc3)o2)C=C(c2ccccc2)N1c1ccc(F)cc1 | 2 | .
COc1ccc(Cn2c(C)cc(O)cc2=O)cc1OC | 2.1 | -0.25
COc1cc(-c2cc(C(=O)NCCCO)c3ccccc3n2)cc(OC)c1OC | . | -0.3
O=C1NCCCC1C(=O)Nc1ccncc1 (centres undefined) | . | 0.6
COc1cc(OC)cc(C(=O)NC(C)c2ccccc2)c1 (centres undefined) | . | -0.35
CCN(CC)CCOC(=O)c1ccc(NC(=O)CN2C(=O)/C(=C\c3ccc(OC)cc3)SC2=S)cc1 | -1.6 | .
O=S(=O)(Nc1cccnc1)c1ccc2[nH]c3c(c2c1)CCCCC3 | -1.1 | -0.2
CCN(CC)C(=O)Cc1c(C(=O)O)[nH]c2ccccc12 | 0.43 | -0.3
N#CCOC(=O)/C=C/c1cn(Cc2ccccc2)nc1-c1cccs1 | . | 0.65
CC(C)(C)c1ccc(C(=O)CC(C(=O)O)N2CCCCC2)cc1 (centres undefined) | -0.17 | -0.95
Cc1ccccc1N=C(NN)c1ccccn1 | -0.11 | -0.2
Cc1ccc(/C=C/C(=O)N2CCCc3ccccc32)o1 | -1.3 | -0.6
O=C(OCCN1C(=O)c2ccccc2C1=O)c1ccccn1 | . | -0.05
Nn1cnn2c(SCc3cccc(C(F)(F)F)c3)nnc12 | -0.56 | 2.2
O=C1CC(C(=O)Nc2cccc3ccccc23)C2(CCCC2)O1 (centres undefined) | 20 | -0.4
CC(C)(C)c1ccc(-c2n[nH]c(S(C)(=O)=O)c2C#N)cc1 | 0.04 | 0.45
Cc1cc2ccccc2nc1SCC(N)=O | . | -0.8
O=C(Nc1cccc(O)c1)c1nn2c(C(F)(F)F)cc(-c3ccco3)nc2c1Br | -0.92 | .
O=C(CNC(=S)N(Cc1cccs1)C1CCCC1)NC1CCCc2ccccc21 (centres undefined) | 0.66 | -0.15
Cc1cccc(Nc2ccccc2C(=O)NCc2ccco2)c1C | . | -0.5
COCCNC(=O)c1cc(S(=O)(=O)N2CCOCC2)ccc1Sc1ccc(Br)cc1 | -1.5 | .
Cc1cccc(N=Cc2c(O)[nH]c3ccccc23)c1 | -0.19 | -0.65
COC(=O)CCC1CCCC/C1=N/O (centres undefined) | -0.48 | 0.25

2 consecutive records already listed, quoted:
canonical_smiles | CapD inh | AID504770
Cc1cccc(N=Cc2c(O)[nH]c3ccccc23)c1 | -0.19 | -0.65
COC(=O)CCC1CCCC/C1=N/O (centres undefined) | -0.48 | 0.25
